D2 ag – agonists of human D2 dopamine receptor (beta-arrestin) | P14416 | DiscoveRx PathHunter D2 beta-arrestin, luminescence, 90 min; 100% = 57 uM dopamine signal | activation, % (test concentration not listed) | 360,000 tested, 0.084% active | AID 624465; in the data active = activation above about 40%; inconclusive = about 15% to 40%; inactive = below about 15%; also: compound concentration not given in the record; the text of the record calls up to 30% inactive
Target sequence (P14416 whole entry, looked up): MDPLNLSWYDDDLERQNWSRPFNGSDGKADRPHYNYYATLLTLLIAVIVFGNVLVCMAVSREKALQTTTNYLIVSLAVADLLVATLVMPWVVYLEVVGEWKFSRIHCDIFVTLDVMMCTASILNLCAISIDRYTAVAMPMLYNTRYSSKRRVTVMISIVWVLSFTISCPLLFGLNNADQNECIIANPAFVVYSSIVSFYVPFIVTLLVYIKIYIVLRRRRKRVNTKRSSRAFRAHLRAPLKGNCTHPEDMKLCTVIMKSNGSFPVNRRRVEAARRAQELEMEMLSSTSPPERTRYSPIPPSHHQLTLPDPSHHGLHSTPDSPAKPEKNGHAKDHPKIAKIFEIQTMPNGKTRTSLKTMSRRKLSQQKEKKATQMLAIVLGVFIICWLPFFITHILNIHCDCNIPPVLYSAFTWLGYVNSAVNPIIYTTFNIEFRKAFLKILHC
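Agonist mode: compounds alone added to overnight-plated D2 PathHunter cells for 90 min at 37 C, with 57 uM final dopamine (EC100) defining full response. Beta-arrestin recruitment detected by chemiluminescent reagent, read after 1 h at ambient temperature.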
D2 potentiator – human D2 receptor positive allosteric modulation; P14416; DiscoveRx D2 beta-arrestin cells, luminescence, 90 min; 100% = 57 uM dopamine signal; potentiation, % (no concentration beside the values); 360,000 tested, 0.23% active; active = potentiation of 50% or more; inconclusive = 30% to 50%; inactive = 30% or less;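 also: compound concentration not given in the record; tested on top of an EC20 dose of dopamine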
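PathHunter beta-arrestin assay in DiscoveRx D2 cells. Compounds were added with an EC20 of dopamine (50 nM final) for 90 min at 37 deg C. Luminescence was read 1 h after detection reagent, with 57 uM dopamine as the EC100 control.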
CtBP-E1A blk – blocks the CtBP interaction with E1A. 340,000 tested, 0.49% active. AlphaScreen GST-E1A/His-CtBP binding, 1536-well; stronger effect = lower value; control for the full effect not named in the record. activity change, % (test concentration not listed); in the data active means activity change below about -65%; inconclusive means about -30% to -65%; inactive means above about -30%; also: % is scaled to controls: 0 for no effect and ±100 for the full control effect; compound concentration not given in the record
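AlphaScreen with 125 nM GST-E1A and 125 nM His-CtBP (5X stocks) in Tris pH 8.0, 300 mM NaCl, BSA, Tween 20, TCEP. Compounds preincubated 2 h at 37 deg C, then glutathione donor/nickel acceptor beads added for 1 h at 37 deg C in dark.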
Six1-Eya2 blk – Six1/Eya2 interaction inhibition | 360,000 tested, 0.56% active | AID 651725 | AlphaScreen GST-Six1/His-Eya2 binding, biochemical; stronger effect = lower value; control for the full effect not named in the record | activity change, % (test concentration not listed) | Q15475+O00167; in the data active = activity change below about -65%; inconclusive = about -30% to -65%; inactive = above about -30%; also: % is scaled to controls: 0 for no effect and ±100 for the full control effect; compound concentration not given in the record
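GST-Six1 + His-Eya2 (5X stock: 250/500 nM); Tris pH 8.0, 300 mM NaCl, 0.05% BSA, 0.02% Tween 20; GSH donor/Ni acceptor beads; 1 h 37 °C dark; AlphaScreen readout.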
TRPML1 ag – activates the human TRPML1 channel; Q9GZU1; AID 624414; 410,000 tested, 0.12% active; activation, % (test concentration not listed); TRPML1-expressing cells, Ca2+ dye fluorescence, FDSS; host cell line not named in the record; reference of the full effect not given here; in the data active = activation above about 50%; inconclusive = about 30% to 50%; inactive = below about 30%; also: 0% is about no effect; the text of the record puts the active cut at 80%
Target sequence (Q9GZU1 whole entry, looked up): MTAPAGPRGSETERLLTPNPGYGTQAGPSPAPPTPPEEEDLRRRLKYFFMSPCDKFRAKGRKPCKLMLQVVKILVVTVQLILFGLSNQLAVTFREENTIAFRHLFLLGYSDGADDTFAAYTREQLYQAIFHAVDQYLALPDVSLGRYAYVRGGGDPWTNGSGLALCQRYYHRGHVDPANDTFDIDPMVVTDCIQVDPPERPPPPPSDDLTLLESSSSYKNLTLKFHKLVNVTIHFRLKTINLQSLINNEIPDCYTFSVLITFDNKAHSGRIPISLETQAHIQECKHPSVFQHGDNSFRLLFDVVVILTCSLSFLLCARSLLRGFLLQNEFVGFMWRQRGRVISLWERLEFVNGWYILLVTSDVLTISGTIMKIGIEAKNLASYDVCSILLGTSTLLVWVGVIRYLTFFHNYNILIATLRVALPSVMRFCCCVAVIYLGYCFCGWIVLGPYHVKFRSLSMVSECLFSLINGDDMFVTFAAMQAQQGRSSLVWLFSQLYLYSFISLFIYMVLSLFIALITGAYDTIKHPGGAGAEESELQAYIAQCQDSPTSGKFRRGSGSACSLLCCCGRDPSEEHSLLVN
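Cells: TRPML1-DL, 1X Tet inducer, ~16 h at 37 degrees C/5% CO2. Dye: ABD Ca8 no-wash + quencher, 45-90 min RT. Read: 10 s baseline, compound add, 110 s agonist phase; 54-4 EC80 (4uM final), 110 s antagonist phase.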
PINK1 modulator – changes PINK1 expression | PINK1 immunofluorescence, high-content cytometry, 24 h | Potency, µM (highest dose often 76.6 µM), inactives show at the highest dose activation (PINK1 increase), most hits filed as activators | 410,000 tested, 0.2% active; active = well fitted activation curve with a large enough effect; inconclusive = small, poorly fitted or top-dose-only effect; inactive = flat fitted curve, though single readings scatter; cell line not stated here;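 also: potency is read from the fitted curve at half-maximal effect; % of control where 0% means no effect; nearly all actives have a fitted effect of over 65% in size; a mitochondrial uncoupler was the plate control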
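Compound titrations (5 concentrations, 24 h) on a stable cell line; DMSO and CCCP controls. Endpoint: fixed-cell PINK1 immunofluorescence with mitochondrial, cell and nuclear markers, scanned by microplate cytometer.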
* = called active by the depositor; ? = inconclusive; . = not tested or not shown; & = joins results of further samples; [ ] = remark or other dose. Rows are unselected, and some 1.3% of all compounds hit somewhere here.

SMILES	D2 ag	D2 potentiator	CtBP-E1A blk	Six1-Eya2 blk	TRPML1 ag	PINK1 modulator
O=C1c2ccccc2C2=Nc3ccccc3SC(c3ccc(Cl)cc3)C12 (stereo unspecified)	0.0	-15.3	-22.3	?	-0.5	?
Cc1sc2nc(CSc3ccccc3)nc(NCCN(C)C)c2c1C	-0.8	-38.5	3.2	-7.9	-0.2	-1.4%
O=C(NN1C(=O)C2C(c3ccccc3)C=CC(c3ccccc3)C2C1=O)c1ccccc1 (stereo unspecified)	-0.5	-20.5	7.2	1.8	3.4	-1.1%
Cc1cc(C)c2cc(CN(CCO)C(=O)Nc3ccc(Cl)cc3)c(=O)[nH]c2c1	-0.2	13.6	-3.9	-3.9	0.1	7.8%
Cc1ccc(S(=O)(=O)N2C[C@H]3[C@H]4C(=O)N(c5ccccc5)C(=O)[C@H]4CC(=O)[C@H]3[C@@H]2c2ccc(Cl)cc2)cc1	-2.6	-4.7	-8.8	4.3	0.3	-1.2%
CC(=O)c1ccc(OCCOc2ccc([N+](=O)[O-])cc2)cc1	2.2	-6.8	0.6	-3.2	-0.4	0.4%
COc1ccc(S(=O)(=O)NCc2cccnc2)c(Cl)c1Cl	-1.2	-6.4	1.7	-1.4	-0.8	-1.0%
CC1(C(=O)Nc2cnc3ccccc3c2)CCN1Cc1ccccc1Cl (stereo unspecified)	8.1	-2.6	-7.6	-5.6	-0.4	-0.3%
O=C(CSc1nc2cc(Cl)c(Cl)cc2[nH]1)c1ccc2c(c1)OCO2	1.0	2.9	6.3	-0.5	0.1	-0.6%
Cc1nc(C(F)(F)F)ccc1C(=O)NN1CCOCC1	2.2	-2.3	6.6	0.5	-0.4	0.6%
O=C(O)COc1ccc(Oc2ccccc2)cc1	-1.4	8.1	5.1	11.0	-0.6	0.3%
O=C(NCCCCNC(=O)c1ccc(F)cc1)c1ccc(F)cc1	-2.6	-21.2	.	0.2	0.5	0.9%
O=C(NC1CC1)c1cc(-c2ccc(Br)cc2)nc2ccccc12	4.2	2.4	.	-1.0	-1.0	?
CCc1ccccc1OCC(=O)Nc1cccc(S(=O)(=O)N2CCCC2)c1	-0.3	-1.8	-14.1	0.6	2.8	2.3%
COc1ccc(-c2nnc3sc(-c4ccccc4OC)nn23)cc1	-2.4	-5.9	-2.7	2.7	0.5	2.3%[38.3 µM]
CCc1ccc(C2CC(c3ccccc3)Nc3nc(N)nn32)cc1 (stereo unspecified)	7.1	2.8	2.1	7.0	1.4	2.8%
COc1ccc(NC(=O)N(C)C[C@@H]2OCc3cnnn3CCCC(=O)N([C@@H](C)CO)C[C@H]2C)cc1	-0.2	.	-12.1	2.5	.	-0.4%
C=CCNC(=O)c1cc2cc(Cl)ccc2nc1N	.	.	-2.3	-11.5	-0.4	2.4%
COc1ccc(C2=NS(=O)(=O)N(C)C(C(=O)Nc3ccc4c(c3)OCO4)=C2)cc1	-3.1	-9.9	-24.7	?	0.4	1.2%
CCCNC(=O)c1cnc(Sc2ncc(C(F)(F)F)cc2Cl)n1C	1.9	3.8	1.0	-2.4	-0.3	1.4%

Record cards, as listed above. Values in the order: D2 ag	D2 potentiator	CtBP-E1A blk	Six1-Eya2 blk	TRPML1 ag	PINK1 modulator
Shown for `CCCNC(=O)c1cnc(Sc2ncc(C(F)(F)F)cc2Cl)n1C` = 1.9	3.8	1.0	-2.4	-0.3	1.4%
Shown for `COc1ccc(C2=NS(=O)(=O)N(C)C(C(=O)Nc3ccc4c(c3)OCO4)=C2)cc1` = -3.1	-9.9	-24.7	?	0.4	1.2%
Shown for `O=C(NC1CC1)c1cc(-c2ccc(Br)cc2)nc2ccccc12` = 4.2	2.4	.	-1.0	-1.0	?

Next compounds follow:
SMILES	D2 ag	D2 potentiator	CtBP-E1A blk	Six1-Eya2 blk	TRPML1 ag	PINK1 modulator
Fc1cccc(/C=N/Nc2ncnc3nc[nH]c23)c1	0.3	1.4	-15.9	-20.9	-0.9	4.4%
NC(=O)c1ccc(C(F)(F)F)n(Cc2c(Cl)cccc2Cl)c1=O	5.2	11.6	5.6	-0.5	4.8	11.8%[38.3 µM]
NS(=O)(=O)c1cnccc1Nc1ccc(Cl)c(Cl)c1	0.5	-19.5	1.1	-1.7	0.9	0.7%
CN1CCC(C)(C(=O)Nc2cccc3c2CCCC3)C1 (stereo unspecified)	-4.6	-7.1	-2.1	-4.7	-0.6	-0.3%
CC(=O)Nc1ccccc1-c1nc2ccc(C(=O)N3CCN(c4cc(C)ccc4C)CC3)cc2[nH]c1=O	2.9	1.6	0.8	-0.9	-0.6	1.4%
NNC(=O)c1ccc(Cl)cc1Cl	-1.5	0.0	-0.6	2.9	1.0	1.0%
Cc1nc(N)sc1Cc1ccc2c(c1)OCO2	-3.4	-4.8	-9.4	-14.9	4.5	-1.6%
O=C(Nc1ccccc1)Nc1nnc(-c2cccs2)s1	-0.1	4.5	-9.4	8.0	0.5	3.3%
Cc1ccc(S(=O)(=O)NNC(=O)Nc2cccc(C)c2C)c(C)c1	-1.1	-1.9	8.9	4.3	-0.1	1.3%
COc1ccc(CCC(=O)Nc2ccc(S(=O)(=O)N3CCOCC3)cc2)cc1OC	-4.1	-12.5	0.0	13.9	-0.2	3.7%
CCOc1ccccc1NC(=O)CSc1nnc(-c2cnccn2)n1CC	-2.5	-19.0	-7.3	0.6	2.9	-2.9%
CN(C(=O)c1ccco1)c1nc(-c2ccc(Cl)cc2)cs1	0.7	-2.4	2.9	0.9	2.0	4.8%
COc1cccc(OC)c1C(=O)OCC(=O)NCCCc1ccccc1	-2.0	-0.6	.	2.4	0.0	-0.4%
Cc1cc(C)c(S(=O)(=O)NCC(c2ccco2)N2CCc3ccccc3C2)c(C)c1 (stereo unspecified)	-0.6	-23.0	-4.9	1.5	2.1	8.7%
CC[C@@H](C)[C@H](NC(=O)CNC(=O)Cc1c(C)c2c(cc(C)c3c(C)coc32)oc1=O)C(=O)O	0.2	-16.3	.	?	0.1	-0.2%
[O-]/C(=C(\C(=S)NCc1ccco1)[n+]1ccccc1)c1ccccc1Br	0.1	8.0	-4.0	0.5	1.7	-2.0%
CCC1=C2CC[C@H]3C(=O)N(CC(=O)OC)C(=O)[C@H]3[C@H]2[C@@]2(C)C(=NCC(=O)OC)OC(=O)N2C1=O	-3.7	-3.2	.	6.8	-0.3	0.4%
O=C1CC(c2ccc(O)cc2)Oc2ccccc21 (stereo unspecified)	1.3	-1.2	3.4	-3.5	2.1	3.3%&0.2%
Cc1ccc(S(=O)(=O)n2nc(C)c(S(=O)(=O)N3CCCCC3)c2C)cc1	2.6	-0.3	6.8	4.1	-0.1&0.1	0.0%&1.9%
Cc1cnc2ncc3sccc3c2c1	0.1	-1.1	0.4	-8.2	-0.5	-0.8%
Cc1ccc(C(=O)NCC(=O)OCC(=O)Nc2ccc(Cl)cn2)cc1	0.6	-2.5	4.3	1.8	1.5	3.2%
O=[N+]([O-])c1ccc(Nc2cccc(F)c2)nc1	-5.6	-3.0	-7.2	0.9	2.6	0.4%
O=C1C(=O)N(Cc2ccccc2)C(c2cccc(O)c2)/C1=C(\O)c1ccc2c(c1)OCCO2 (stereo unspecified)	-4.0	-1.0	.	-5.7	-0.7	1.5%
COCCN=C1NN=C(c2ccc(NC(C)=O)cc2)CS1	-2.4	-3.7	-11.3	0.3	-0.6	0.7%
CCOc1ccc(N2C(=O)CN=C2Nc2ccccc2F)cc1	0.6	12.9	10.0	1.5	-1.5	0.1%
C#CCOC(=O)C(NC(=O)c1ccccc1)=C(C)C	-1.6	8.9	0.7	-0.1	-1.2	0.9%
COc1ccc2nc(SCC(=O)N(C)C3CCCCC3)[nH]c2c1	1.4	-1.7	-10.3	3.2	1.1	-0.5%
O=C(NCC(c1ccc(F)cc1)N1CCOCC1)c1nn(-c2ccccc2)c(=O)c2ccccc12 (stereo unspecified)	-4.9	-2.0	-8.3	-3.5	-0.5	-0.6%
Cc1ccc(CNC(=O)Nc2ccc(C)cc2)cc1	-2.2	-4.7	.	5.7	0.4	2.8%
COc1ccc(Nc2nc(-c3ccccc3)nc3ccccc23)c(OC)c1	5.6	0.8	50.3	37.2	1.8	3.2%
COCCNC(=O)CCCCCN1C(=O)CCC1=O	-1.8	-22.6	4.1	2.5	0.3	-1.2%
S=c1[nH]cc(Oc2ccc(Cl)cc2Cl)c(=S)[nH]1	-4.8	-11.3	-8.9	-4.2	-0.5	29.1%
O=C(c1ccc2c(c1)OCO2)C1CCCN(C2CCN(CCc3ccccc3)CC2)C1 (stereo unspecified)	-1.5	-11.8	1.8	-7.2	-0.3	4.4%
CN1CCN(CCNC(=O)Nc2ccccc2C(F)(F)F)CC1	-2.1	0.4	-3.6	12.5	-0.1	-0.8%
COc1ccc([N+](=O)[O-])cc1NC(=O)CSc1ccccc1	-4.6	-5.0	0.2	-7.7	-0.7	1.1%
CC(=O)c1cccc(NC(=O)CSc2n[nH]c(-c3ccncc3)n2)c1	12.0	-3.3	2.7	2.7	1.7	-0.3%
CS(=O)(=O)N(CC(=O)N1CCCC1)c1cc(Cl)ccc1Cl	-5.5	1.7	8.5	4.2	0.1	-0.3%
Cc1ccc(-n2c(=O)c3c(n4cnnc24)-c2ccccc2CC32CCCCC2)cc1	-3.2	-7.7	-16.8	-23.6	0.8	-2.1%
O=c1cc(CN2CCN(c3ccccc3F)CC2)c2cc(O)c(-c3ccccc3)cc2o1	-2.4	-5.6	-2.0	2.1	-0.1	8.2%
CCOC(=O)c1cc(NC(=O)Nc2ccc(Br)cc2)c(C)nc1C	-4.1	-4.3	.	-2.9	1.0	4.7%
CCOC(=O)c1ccc(CNC(=O)C2CCC(=O)N(Cc3cccc(OC)c3)C2)o1 (stereo unspecified)	-5.1	-27.8	-0.9	-3.8	-0.3	-2.3%
COc1ccc(-c2cc3nc(C)c(CCC(=O)NC(C)CCc4ccco4)c(C)n3n2)c(OC)c1 (stereo unspecified)	-2.3	0.3	-16.1	-14.7	-0.7	0.2%
O=c1[nH]c2ccc(NC(=S)NCc3ccccc3)cc2[nH]1	-4.3	-11.1	.	1.7	-0.6	-1.1%
Cc1cc(F)ccc1NS(=O)(=O)c1c(C(=O)N2CCOCC2)c(C)n(C)c1C	-0.8	-7.3	3.1	-1.5	-0.6	1.3%
OC(c1ccc(F)c(F)c1)c1nc(-c2ccc(F)c(Cl)c2)cs1 (stereo unspecified)	1.7	-2.3	4.3	-3.8	-0.3	?
COc1ccc(CCNC(=O)Cn2nc(C)n3nc(-c4ccccc4)cc3c2=O)cc1OC	-1.9	-6.1	1.4	1.8	-0.5	0.2%
O=C(CCN1C(=O)[C@@H]2Cc3ccccc3CN2C1=O)NCc1ccc(Cl)cc1	-4.6	1.1	6.3	1.0	-0.3	0.6%
COc1ccc(CC(=O)NCCS(=O)(=O)N2CCN(c3ccccc3OC)CC2)cc1	-5.1	-23.8	10.3	17.9	-0.6	6.3%
CCCn1c(=O)[nH]c(=O)c2c1nc(-c1cc([N+](=O)[O-])ccc1Cl)n2CCOC	3.4	-4.9	18.2	8.1	-0.7	8.3%

Screening data deposited in PubChem BioAssay by National Center for Advancing Translational Sciences (NCATS).
